MT1-MMP reporter = inhibitors of MT1-MMP promoter transcription, cell-based, luciferase reporter, luminescence (AID 618); MT1-MMP promoter luciferase reporter cells, luminescence; calls from a first round at 10 µM; hits with a dose series show EC50 in µM; 87,000 compounds, 0.62% hits;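 active means over half of the reporter light lost at 10 µM or EC50 under 50 µM; inactive means the rest and hits that failed the dose series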;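 further: actives suppress MT1-MMP promoter-driven transcription so potencies describe inhibitors; HT1080 fibrosarcoma cells; overnight exposure; toxic or luciferase-blocking compounds were not removed from the actives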
Hsc70 = Hsc70 inhibitors, probe displacement, primary screen, biochemical, fluorescence polarization (AID 568); Heat shock cognate 71 kDa protein (Homo sapiens); Hsc70 fluorescence polarization, probe displacement; higher % means a stronger effect; strong numbers were not always called active; displacement, % at 20 µM, or IC50 in µM where a hit was titrated; 83,000 tested, under 10 active;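 active means displacement above 50% without optical interference and an IC50 on retest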;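 further: ATPase domain with a fluorescein-tagged ATP probe; 0% = vehicle and 100% = excess ADP; read after one hour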
WNV protease inh = inhibitors of WNV NS2B-NS3 protease, primary screen, biochemical, fluorogenic substrate | fluorogenic substrate Ex360/Em465; active compounds read low | z-score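 (tested at a level between 10 and 100 µM)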 | 65,000 compounds, 0.18% hits;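 active means z-score at -3 or under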;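 further: score is relative to mean and spread of the compound wells of a plate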
Target sequence (P06935 1371-1501 limits assumed): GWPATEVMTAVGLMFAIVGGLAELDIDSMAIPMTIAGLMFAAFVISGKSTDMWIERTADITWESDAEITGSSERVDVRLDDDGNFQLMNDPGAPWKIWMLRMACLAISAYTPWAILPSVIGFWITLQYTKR
Target sequence (P06935 1502-1679 limits assumed): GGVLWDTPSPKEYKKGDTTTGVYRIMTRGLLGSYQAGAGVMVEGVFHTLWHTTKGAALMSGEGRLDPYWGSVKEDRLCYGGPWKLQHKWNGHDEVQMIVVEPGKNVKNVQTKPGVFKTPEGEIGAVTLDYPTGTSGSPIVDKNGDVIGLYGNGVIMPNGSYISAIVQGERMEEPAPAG
Active calls of the source: *; i = inactive; · = not tested or not shown; + = active, no number. An excerpt; the hit share may differ from the screen's.

structure | Hsc70 | MT1-MMP reporter | WNV protease inh
Cc1c(N2C(=O)C(C)SC23C(=O)Nc2ccccc23)c(=O)n(-c2ccccc2)n1C (stereo not given) | 0.0% | i | 0.33
Cn1c(N)c(C#N)c(C#N)c1-c1ccccc1 | -6.0% | i | -2.05
COc1cccc2cc(C(=O)N(Cc3ccccc3)CC3CCCO3)c(=O)oc12 (stereo not given) | 2.7% | i | ·
CCCC(C)C(=O)Nc1ccc(NC(C)=O)cc1 (stereo not given) | -4.0% | i | ·
CCCCCCCCCC(=O)OCC(O)CO (stereo not given) | 3.0% | i | ·
CCn1c(N)c(C(=O)NC2CCCCC2)sc1=S | 1.7% | i | -1.4
Cc1nnc(NC(=O)c2ccco2)s1 | 0.7% | i | 0.26
CCCNC(=S)N1CCC(NC(=O)C2CCCCC2)CC1 | -0.2% | i | ·

Going on with the list.
structure | Hsc70 | MT1-MMP reporter | WNV protease inh
Oc1ccccc1/C=N/Nc1nccnc1Cl | 1.5% | i | ·
O=C(Nc1cccc(Cl)c1)N1CCN(Cc2ccccc2)CC1 | -2.5% | i | 0.96
c1cncc(-c2nc3cc(Cc4ccc5oc(-c6cccnc6)nc5c4)ccc3o2)c1 | -0.1% | i | -0.09
CCC1Oc2ccccc2N(CC(=O)NCCc2ccc(OC)c(OC)c2)C1=O (stereo not given) | 0.6% | i | ·
Cc1ccc(C(=O)c2coc3ccc(O)c(Cl)c23)cc1 | 5.1% | i | ·
CC1CN(C(=O)COc2ncnc3ccccc23)CC(C)O1 (stereo not given) | 3.4% | i | ·
COc1cc(-c2nnc3sc(-c4ccncc4)nn23)cc(OC)c1OC | 1.5% | i | 0.79
CC(C)n1c(-c2ccco2)csc1=Nc1cccnc1 | -0.6% | i | -0.37

More records follow.
structure | Hsc70 | MT1-MMP reporter | WNV protease inh
Cc1nccn1CC(O)COC1CCCCC1 (stereo not given) | 4.5% | i | -0.3
CC(=O)c1cc2c(cc1NS(=O)(=O)c1ccc3c(c1)OCCO3)OCO2 | -1.4% | i | -0.38
COc1cc(OC)cc(C(=O)NCc2cccnc2)c1 | 8.5% | i | 2.19
N#C/C(=C(\O)Cc1ccccc1)c1nc2ccccc2[nH]1 | -0.9% | i | ·
Cc1ccc(S(=O)(=O)NCc2ccncc2)cc1 | -5.8% | i | -0.31
Cc1ccc(N2C(=O)CC(N3CCN(C)CC3)C2=O)cc1 (stereo not given) | 2.7% | i | ·
CCN1CCN(CC(=O)Nc2cccc(C)c2C)C(=O)C1=O | 2.6% | i | 0.51
COc1cccc(C2C(C#N)=C(N)Oc3cc(C)n(Cc4ccccn4)c(=O)c32)c1OC (stereo not given) | -0.1% | i | -0.29

Next records follow.
structure | Hsc70 | MT1-MMP reporter | WNV protease inh
CC(C)n1c(N2CCN(C(=O)N3CCCCC3)CC2)nc2ccccc21 | 0.9% | i | 1.13
CC(C)c1[nH]nc2c1C(c1cccnc1)C(C#N)=C(N)O2 (stereo not given) | -1.3% | i | -0.58
CCc1cc2c(=O)n(C(C)C(=O)OC3CCCCC3)cnc2s1 (stereo not given) | -13.7% | i | -1.29
c1ccc(Cc2nnc3n2CCCCC3)cc1 | -5.8% | i | 0.86
O=C(CSc1nc2ccccc2[nH]1)NCCCn1ccnc1 | 1.6% | i | -1.64
COc1ccc(-c2nnn(CC(=O)OC3CCCCC3)n2)cc1OC | -6.8% | i | 1.45
CN(C)c1cccc(C(=O)Nc2cccc(F)c2)c1 | 9.4% | i | -0.04
COc1cccc(CN2CCNC(=O)C2CC(=O)O)c1OC (stereo not given) | 4.2% | i | 0.58

Following part
structure | Hsc70 | MT1-MMP reporter | WNV protease inh
COc1ccc(C2C(C(=O)Nc3cccc(C)n3)CCC(=O)N2c2ccc(OC)cc2)cc1 (stereo not given) | 0.5% | i | -0.43
CCc1c(O)nc(SCC(=O)Nc2ccccc2)n(-c2ccccc2)c1=O | -3.2% | i | 0.42
O=C(Cc1n[nH]c(=O)c2ccccc12)OCC(=O)c1ccc2c(c1)OCCO2 | -3.5% | + | -0.01
O=C(CN(Cc1ccco1)C(=O)CCC(=O)Nc1ccccn1)NCCc1ccccc1 | 1.2% | i | 0.83
Cc1ccc(-c2nn(C)c(=O)c3ccccc23)cc1S(=O)(=O)N1CCOCC1 | 4.0% | i | -0.1
O=C(Nc1ccc(Br)cc1)N1CCCCCCC1 | -5.0% | i | -0.7
c1csc(CSc2nc3ccccc3s2)c1 | -0.3% | i | 0.2
O=C(Nc1cc(Cl)ccn1)C1CCN(S(=O)(=O)c2cccs2)CC1 | -4.1% | i | ·

The listing continues:
structure | Hsc70 | MT1-MMP reporter | WNV protease inh
CCn1c(SCC(=O)Nc2ccccc2F)nc2c(c1=O)SC(C)C2 (stereo not given) | -2.4% | i | -0.83
Cc1cc(N2C(=O)C(=O)/C(=C(/O)c3ccccc3)C2c2cccc(Br)c2)no1 (stereo not given) | -3.5% | i | 0.04
O=C(Nc1ccc(F)c(F)c1)c1ccc2c(c1)OCO2 | -1.5% | i | -0.2
COC(=O)CSc1nnc(CNc2nc(-c3ccccc3)cs2)n1C | -2.4% | i | ·
COc1ccccc1C(=O)NCCn1cc(SCC(=O)Nc2nnc(C)s2)c2ccccc21 | 2.4% | i | 1.62
COc1ccc(CCN2C(=O)C3C4C=CC(C4)C3C2=O)cc1OC (stereo not given) | 0.4% | i | -0.3
O=C(c1ccc(O)cc1)c1ccc(C(=O)c2ccc(O)cc2)cc1 | 4.0% | i | ·
COc1ccc(-c2csc(Nc3ncccc3C)n2)cc1 | 3.4% | i | ·

(more compounds)
structure | Hsc70 | MT1-MMP reporter | WNV protease inh
Cc1nc2ccc(-c3nc4ccccc4o3)cc2[nH]1 | -2.4% | i | ·
O=C(CN1N=C(C(F)(F)F)CC1(O)c1ccc([N+](=O)[O-])cc1)c1ccccc1 (stereo not given) | -2.2% | i | ·
COc1ccccc1CC(=O)N1CCN(c2ccccn2)CC1 | 4.6% | i | ·
COc1ccc(CNC(=O)CN(CC2CCCO2)C(=O)CNS(=O)(=O)c2ccccc2)cc1 (stereo not given) | 0.7% | i | 0.53
COC(=O)CSc1nnc(-c2cnccn2)n1C | 5.6% | i | -0.48
O=C(NC1CCCC1)C(c1cccs1)N(C(=O)c1ccco1)c1ccc2c(c1)OCO2 (stereo not given) | -0.6% | i | ·
COC(=O)c1ccc(C)c(NC(=O)Cc2coc3cc(OC)ccc23)c1 | -2.1% | i | 1.89
Cc1c(NC(=O)c2ccccc2N(C)S(=O)(=O)c2ccccc2)c(=O)n(-c2ccccc2)n1C | -2.3% | i | ·

Overlap with the part before: 6 entries, then new ones.
structure | Hsc70 | MT1-MMP reporter | WNV protease inh
COc1ccccc1CC(=O)N1CCN(c2ccccn2)CC1 | 4.6% | i | ·
COc1ccc(CNC(=O)CN(CC2CCCO2)C(=O)CNS(=O)(=O)c2ccccc2)cc1 (stereo not given) | 0.7% | i | 0.53
COC(=O)CSc1nnc(-c2cnccn2)n1C | 5.6% | i | -0.48
O=C(NC1CCCC1)C(c1cccs1)N(C(=O)c1ccco1)c1ccc2c(c1)OCO2 (stereo not given) | -0.6% | i | ·
COC(=O)c1ccc(C)c(NC(=O)Cc2coc3cc(OC)ccc23)c1 | -2.1% | i | 1.89
Cc1c(NC(=O)c2ccccc2N(C)S(=O)(=O)c2ccccc2)c(=O)n(-c2ccccc2)n1C | -2.3% | i | ·
COCCn1c(N2CCN(c3ccc(OC)cc3)CC2)nc2c1c(=O)[nH]c(=O)n2C | 0.2% | i | -0.19
Cc1ccc(NC(=O)Cn2cnc3c(cnn3C(C)(C)C)c2=O)cc1 | 0.0% | i | 0.12
CCOC(=O)N1CCN(C(=O)Nc2ccc3nc(-c4ccccn4)c(-c4ccccn4)nc3c2)CC1 | -0.6% | i | ·
Cc1ccc(S(=O)(=O)Cc2ccc(C(=O)N3CCN(c4ccc(F)cc4)CC3)o2)cc1 | 1.8% | i | -0.81
Clc1ccc(CN(CC2CCCO2)C(c2cccs2)c2nnnn2C2CCCC2)cc1 (stereo not given) | -2.1% | i | ·
Cc1ccsc1C1CC(=O)NC2=C1C(=O)CC(C)(C)C2 (stereo not given) | 1.6% | i | -1.72
CC1Cc2ccccc2N1C(=O)COC(=O)c1cccnc1Cl (stereo not given) | 0.6% | i | ·
COC(=O)c1ccccc1NC(=O)CSc1n[nH]c(CC(C)C)n1 | 2.0% | i | -1.4

Going on with the list:
structure | Hsc70 | MT1-MMP reporter | WNV protease inh
O=C(NCCN1CCOCC1)c1cc2n(n1)C(C(F)(F)F)CC(c1ccc(F)cc1)N2 (stereo not given) | -2.6% | i | -0.18
CCCCSc1nc2ccccc2n1CC(=O)O | 0.7% | i | ·
Cc1cc(NC(=O)CSc2nnc(C3CC3)n2Cc2ccccc2)no1 | 0.6% | i | ·
c1ccc(CNn2nnnc2-c2ccccc2)cc1 | -0.1% | i | -0.11
CCOC(=O)Nc1nnc(-c2ccccc2OC)s1 | -2.6% | i | 0.03
CNC(=O)NC(=O)CSc1nc2ccccc2n1CCOC | 1.7% | i | ·
O=C(CSCc1ccccc1)Nc1nccs1 | 5.0% | i | -0.17
COC(=O)Nc1c(-c2ccccc2)nc2ccccn12 | -1.5% | i | -0.15

Going on with the list:
structure | Hsc70 | MT1-MMP reporter | WNV protease inh
CCOC(=O)c1c(NC(=O)COC)sc2c1CCCC2 | -7.8% | i | -0.06
CC(C)COc1ccc(CNC(=S)N/N=C/c2ccc([N+](=O)[O-])cc2)cc1 | 6.1% | i | ·
CCOc1ccc(-c2nc(CSc3nnc(N)s3)cs2)cc1OC | 3.6% | i | ·
CCOC(=O)CSc1nc2c(sc(=S)n2Cc2ccco2)c(=O)n1-c1ccccc1 | 0.6% | i | 0.55
COC(=O)c1ccccc1NC(=O)C1COc2ccccc2O1 (stereo not given) | -6.3% | i | -0.46
COc1ccc(CCNC(=O)c2cc3sccc3n2C)cc1OC | 0.1% | i | 0.32
COCC(C)Nc1ncnc2c1cnn2-c1ccc(Cl)cc1 (stereo not given) | -2.9% | i | -0.24
Cc1ccccc1CSc1nnc(Cn2c(=O)sc3ccccc32)n1C | 3.2% | i | 0.53

Other compounds.
structure | Hsc70 | MT1-MMP reporter | WNV protease inh
CO/C=C/C#CC1(O)CCN(C)CC1 | 1.5% | i | 0.88
CCCOc1ccc(C(=O)c2nc3c(n2O)CCCCC3)cc1 | -1.2% | i | ·
COc1ccc(N2CCN(CC(O)COc3ccc4c(c3)CCC4)CC2)cc1 (stereo not given) | 1.4% | i | ·
CCOC(=O)Cn1c(=N)n(CCOc2cccc(C)c2)c2ccccc21 | 0.6% | i | 0.03
O=C1CC(c2cccc(F)c2)C2=C(CCCC2=O)N1 (stereo not given) | 3.7% | i | 0.72
O=C(CSc1nnc(COc2cccc3cccnc23)o1)N1CCN(C(=O)c2ccco2)CC1 | 1.7% | i | ·
COc1ccc(-c2nc(NC(=O)CSc3nnc(C)s3)ns2)cc1 | -9.5% | i | -1.22
Cc1cnc(C(=O)Nc2ccc(N3CCN(C(=O)OC(C)(C)C)CC3)cc2)cn1 | -1.1% | i | -0.33

More records follow.
structure | Hsc70 | MT1-MMP reporter | WNV protease inh
O=C(C1CC1c1ccccc1)N1CCN(c2cccc(Cl)c2)CC1 (stereo not given) | -1.9% | i | 0.27
O=C(c1coc(=O)c2ccccc12)N1CCN(Cc2ccccc2)CC1 | 2.8% | i | -0.21
CCN(CC)S(=O)(=O)c1ccc(-c2nnc(SCC(=O)Nc3ccc4c(c3)OCO4)o2)cc1 | -1.0% | i | -1.07
CSC1=NCCN1C(=O)c1c(F)cccc1Cl | 3.7% | i | -1.03
O=C(c1cn(-c2ccccc2)nc1-c1ccncc1)N1CCCCC1 | -1.5% | i | 0.47
O=C(Nc1nccs1)c1ccc(S(=O)(=O)N2CCCCC2)cc1 | -1.0% | i | -1.02
COc1ccc(OCCSc2nnc3sc4ccccc4n23)cc1 | 1.8% | i | 0.34
CCOC(=O)Cc1[nH]nc2c1C(C1C=CCCC1)C(C#N)=C(N)O2 (stereo not given) | -9.6% | i | -0.23

(next part)
structure | Hsc70 | MT1-MMP reporter | WNV protease inh
COc1ccc(C(=O)Nc2nc(C)c(C(=O)N(C)C)s2)cc1OC | -0.1% | i | 0.11
O=C(c1ccccc1)c1c[nH]cc1-c1ccccc1 | 1.2% | i | ·
O=C(c1ccc2ncsc2c1)N1CCN(c2ccc(O)cc2)CC1 | -0.3% | i | ·
COc1ccc(OC)c(C2NC(=O)NC(C)=C2C(=O)Nc2ccc(C)cc2C)c1 (stereo not given) | 4.3% | i | -0.5
Cc1c(Cl)ccc2c1NC(=O)C21NC(CCC(N)=O)[C@H]2C(=O)N(c3ccc(Cl)cc3)C(=O)[C@H]21 (stereo not given in full) | -2.6% | i | 0.12
Cc1csc(SCc2nc3sc4c(c3c(=O)[nH]2)CCC4)n1 | -0.6% | i | 1.78
O=C(c1ccc(Cl)cc1)c1nnc(-c2ccncc2)o1 | -5.0% | i | -0.34
C=CCn1c(SCC(=O)O)nnc1-c1ccccc1 | 8.4% | i | ·

Additional results follow.
structure | Hsc70 | MT1-MMP reporter | WNV protease inh
O=C(O)CCc1ccc(-c2ccccc2)n1CC1CCCO1 (stereo not given) | 3.3% | i | -0.07
Cc1cccc2nc(CSc3nnnn3-c3ccccc3)cn12 | -5.9% | i | -0.66
O=C(NCCN1CCOCC1)N1CCOCC1 | 0.9% | i | 0.07
O=C(Nc1c(F)c(F)c(F)c(F)c1F)NC1CCCCC1 | 12.1% | i | 2.35
COc1ccc(/C=N/n2c(=S)n(C)c3ccccc32)cc1OC | 3.6% | i | ·
CC1(C)Cc2c(C#N)c(N3CCCC3)nc(-c3ccco3)c2CO1 | -0.1% | i | -0.32

Screening data from PubChem.
